# DUX4 txn inh: inhibitors of DUX4-driven ZSCAN4 reporter expression, primary screen, 293T cells, Gaussia and Italica luciferase; 293T-iDUX4 ZSCAN4-Gaussia luciferase reporter, 24 h; hits give low values; 37,000 compounds, 0.8% hits; activity change, negative = inhibition, % (no concentration beside the values);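 active = -10% or lower and over 25 points stronger than a control reporter; inconclusive = -10% or lower with a smaller gap; inactive = above -10%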;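 also: 0% = median of neutral control wells and -100% = median of positive control wells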
# DUX4 txn inh difference: further read-out of DUX4 txn inh, marked with its call; Gaussia minus Italica difference, %; measured here: selective DUX4 reporter inhibition;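 worked out from the two reporters; negative = selective loss of the DUX4 reporter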
# DUX4 txn inh control: recorded beside DUX4 txn inh, whose call it bears; activity change, negative = inhibition, %; measured here: Italica tet-on control reporter;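 0 = neutral control and -100 = positive control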
# Numbers without * were called inactive; ? = inconclusive; nt = no result given. This is a subset; the hit share may differ from the screen's.
DUX4 txn inh	DUX4 txn inh difference	DUX4 txn inh control	Structure
?	nt	nt	COc1ccccc1C#Cc1ccc2c(c1)[C@@H]1[C@@H](CCN1C(=O)Cc1ccccc1)[C@@H](CO)N2
20	5	14	O=C(Nc1ccccc1)N1CCCCN2[C@@H](CO)[C@H](c3ccc(Br)cc3)[C@@H]2C1
0	-1	0.9	CN(C)CC(=O)N1[C@H](C#N)[C@H](c2ccc(-c3cccc(C(=O)N(C)C)c3)cc2)[C@@H]1CO
5	2	3.6	CNC[C@@H]1OCCCC[C@@H](C)Oc2ccc(N)cc2C(=O)N([C@H](C)CO)C[C@H]1C
-4	-3	-0.7	CCCN(C)C[C@@H]1OCCCC[C@H](C)Oc2ccc(NC(=O)CCCN(C)C)cc2C(=O)N([C@@H](C)CO)C[C@@H]1C
-3	-5	1.9	CO[C@@H](CN(C)S(=O)(=O)c1ccc(F)cc1)[C@H](C)CN(Cc1ccccc1Cl)[C@@H](C)CO
9	13	-3.5	O=C(C[C@H]1C=C[C@H](NC(=O)C2CCC2)[C@@H](CO)O1)NCCCN1CCOCC1
2	1	1.4	O=C(C[C@@H]1C[C@H]2c3cc(NC(=O)C4CCOCC4)ccc3O[C@H]2[C@@H](CO)O1)NCc1cccnc1
0	0	-0.3	C[C@@H]1CN([C@H](C)CO)C(=O)c2cc(NC(=O)c3ccncc3)ccc2O[C@@H]1CN(C)CC1CCCCC1
-4	2	-5.2	C[C@H](NC(=O)C[C@H]1CC[C@@H]2[C@@H](COc3ccc(NC(=O)C4CCOCC4)cc3C(=O)N2C)O1)c1ccccc1
-14*	-47*	33*	CC(C)CC#Cc1ccc([C@@H]2[C@@H](CO)N3CCCCN(S(=O)(=O)Cc4ccccc4)C[C@@H]23)cc1
-2	-6	4.3	CS(=O)(=O)N1CC(=O)N2[C@H](CO)[C@@H](c3ccc(C#CCc4ccccc4)cc3)[C@H]2C1
?	nt	nt	COc1ccc(S(=O)(=O)N2CCC3(CC2)CN(C(=O)CN(C)C)[C@@H](CO)c2c3c3ccc(OC)cc3n2C)cc1
-1	1	-1.2	C[C@H](NC(=O)C[C@H]1C=C[C@H](NC(=O)c2cccnc2)[C@H](CO)O1)c1ccccc1
2	1	1.7	CCCC(=O)Nc1ccc2c(c1)OC[C@@H](C)N(Cc1cncnc1)C[C@@H](C)[C@H](OC)CN(C)C2=O
-2	-12	10	O=C(CN1CCOCC1)N1CC2(C1)[C@@H](c1ccccc1)[C@@H](CO)N2Cc1ccc(F)cc1
-1	-8	7.8	CC(C)OC(=O)N(C)C[C@H]1OCc2ccccc2-c2c(n(C)c3ccccc23)C(=O)N([C@@H](C)CO)C[C@H]1C
-1	-20	19	COc1cccc(S(=O)(=O)N2CC[C@H]3[C@@H](CO)N(C)c4ccc(C#Cc5ccc(F)cc5)cc4[C@H]32)c1
-4	-1	-2.6	C[C@@H]1CN([C@H](C)CO)C(=O)CCCn2nncc2CO[C@H]1CN(C)C
8	3	5.5	Cc1ccc(-c2ccc([C@H]3[C@H](CO)N4C(=O)CN(C(=O)Nc5ccc(F)cc5)C[C@@H]34)cc2)cc1
2	2	-0.1	N#C[C@@H]1[C@H](c2ccc(-c3ccccc3F)cc2)[C@@H](CO)N1C(=O)C1CC1
-2	-5	2.3	COc1cccc(C#Cc2ccc3c(c2)O[C@H](CN(C)C(=O)CN2CCOCC2)[C@H](C)CN([C@@H](C)CO)S3(=O)=O)c1
5	-1	5.7	CN1C(=O)c2cc(NC(=O)c3ccc(Cl)cc3)ccc2OC[C@@H]2O[C@H](CC(=O)O)CC[C@@H]21
7	-1	7.6	N#C[C@H]1[C@@H](c2ccccc2-c2cccc(F)c2)[C@@H](CO)N1C(=O)C1CCOCC1
-2	-2	0.3	C[C@@H]1CCCCO[C@H](CN(C)C(=O)c2ccncc2)[C@H](C)CN([C@@H](C)CO)C(=O)c2cc(NS(=O)(=O)c3cn(C)cn3)ccc2O1

# Another view of part of the listing above:
canonical_smiles | DUX4 txn inh | DUX4 txn inh difference | DUX4 txn inh control
O=C(C[C@@H]1C[C@H]2c3cc(NC(=O)C4CCOCC4)ccc3O[C@H]2[C@@H](CO)O1)NCc1cccnc1 | 2 | 1 | 1.4
C[C@@H]1CN([C@H](C)CO)C(=O)c2cc(NC(=O)c3ccncc3)ccc2O[C@@H]1CN(C)CC1CCCCC1 | 0 | 0 | -0.3
C[C@H](NC(=O)C[C@H]1CC[C@@H]2[C@@H](COc3ccc(NC(=O)C4CCOCC4)cc3C(=O)N2C)O1)c1ccccc1 | -4 | 2 | -5.2
CC(C)CC#Cc1ccc([C@@H]2[C@@H](CO)N3CCCCN(S(=O)(=O)Cc4ccccc4)C[C@@H]23)cc1 | -14* | -47* | 33*
CS(=O)(=O)N1CC(=O)N2[C@H](CO)[C@@H](c3ccc(C#CCc4ccccc4)cc3)[C@H]2C1 | -2 | -6 | 4.3
COc1ccc(S(=O)(=O)N2CCC3(CC2)CN(C(=O)CN(C)C)[C@@H](CO)c2c3c3ccc(OC)cc3n2C)cc1 | ? | nt | nt

# Next results:
DUX4 txn inh	DUX4 txn inh difference	DUX4 txn inh control	Structure
-1	0	-0.8	C[C@H](CO)N1C[C@H](C)[C@H](CN(C)CC2CCCCC2)Oc2ccc(NC(=O)Nc3ccccc3)cc2CC1=O
3	1	1.3	Cc1noc(C)c1S(=O)(=O)Nc1ccc2c(c1)C(=O)N([C@H](C)CO)C[C@H](C)[C@@H](CN(C)C(=O)c1ccncc1)OCCCC[C@@H](C)O2
-1	1	-1.2	C[C@@H]1CN([C@H](C)CO)S(=O)(=O)c2ccc(-c3cccc(C#N)c3)cc2O[C@H]1CN(C)C(=O)c1ccccc1
11	11	-0.5	COc1ccc(CNC(=O)N(C)C[C@H]2OCc3ccccc3-c3ccccc3C(=O)N([C@H](C)CO)C[C@H]2C)cc1
12	8	4.0	CN1CCN(C(=O)[C@@H]2[C@@H](CO)[C@@H]3Cn4c(ccc(-c5ccncc5)c4=O)[C@@H]3N2CC2CC2)CC1
1	-3	4.0	C[C@H](NC(=O)[C@H]1[C@H](CO)[C@H]2Cn3c(cccc3=O)[C@H]2N1S(C)(=O)=O)c1ccccc1
10	9	0.1	O=C(C[C@@H]1C[C@@H]2c3cc(NS(=O)(=O)c4ccc(F)cc4)ccc3O[C@@H]2[C@@H](CO)O1)NC1CCCCC1
-3	-1	-1.6	O=C(C[C@@H]1C[C@H]2c3cc(NC(=O)c4cccnc4)ccc3O[C@H]2[C@H](CO)O1)NCc1cc(F)ccc1F
4	2	1.7	COc1ccc(S(=O)(=O)Nc2ccc3c(c2)C(=O)N([C@@H](C)CO)C[C@@H](C)[C@H](CN(C)C(=O)Nc2c(C)noc2C)OCCCC[C@@H](C)O3)cc1
-2	0	-2.3	COc1cccc(NC(=O)Nc2ccc3c(c2)C(=O)N(C)[C@@H]2CC[C@H](CC(=O)O)O[C@H]2CO3)c1
3	-8	11	C[C@@H]1CN([C@@H](C)CO)C(=O)c2ccccc2-c2ccccc2CO[C@H]1CN(C)C(=O)[C@H](Cc1ccccc1)N(C)C
4	-1	5.2	CN(C)CC#Cc1ccc([C@@H]2[C@H]3CN(C(=O)c4ccc(F)cc4)CC(=O)N3[C@H]2CO)cc1
-2	-3	1.5	Cc1ccc(S(=O)(=O)Nc2ccc3c(c2)C(=O)N([C@H](C)CO)C[C@H](C)[C@@H](CN(C)Cc2ccc4c(c2)OCO4)OCCCC[C@H](C)O3)cc1
-5	-8	3.0	COc1ccccc1CN1C[C@@H](C)[C@@H](OC)CN(C)C(=O)c2ccc(NC(C)=O)cc2OC[C@H]1C
1	2	-1.4	C[C@@H]1CN([C@H](C)CO)C(=O)c2cccc(NC(=O)Nc3ccc(C(F)(F)F)cc3)c2O[C@@H]1CN(C)C(=O)Nc1cccc2ccccc12
-2	1	-3.5	C[C@H](CO)N1C[C@H](C)[C@H](CN(C)Cc2ccc(-c3ccccc3)cc2)Oc2ccc(NS(=O)(=O)c3cn(C)cn3)cc2C1=O
?	nt	nt	COc1cccc(CN2CCC3(CC2)CN(C(=O)C2CC2)[C@H](CO)c2[nH]c4cc(OC)ccc4c23)c1
17	7	10	COCC(=O)N1CC2(C1)[C@H](c1ccc(-c3ccc(C)cc3)cc1)[C@H](CO)N2C(C)=O
2	5	-3.2	CC(C)NC(=O)N[C@@H]1C=C[C@H](CC(=O)O)O[C@@H]1CO
-1	0	-1.1	Cc1noc(C)c1NC(=O)N(C)C[C@@H]1OCCCC[C@H](C)Oc2ccc(NC(=O)Nc3ccc(C(F)(F)F)cc3)cc2C(=O)N([C@H](C)CO)C[C@@H]1C
?	nt	nt	C/C=C/c1ccc([C@@H]2[C@@H](CO)N(CC3CCCC3)C23CN(S(=O)(=O)CC)C3)cc1
5	7	-2.6	CCCNC(=O)N[C@H]1C=C[C@@H](CC(=O)N2CCN(C)CC2)O[C@@H]1CO

# Complete entries, quoted from the list. Screens in order: DUX4 txn inh | DUX4 txn inh difference | DUX4 txn inh control
# C[C@@H]1CN([C@@H](C)CO)C(=O)c2ccccc2-c2ccccc2CO[C@H]1CN(C)C(=O)[C@H](Cc1ccccc1)N(C)C is entered as 3 | -8 | 11
# C[C@H](NC(=O)[C@H]1[C@H](CO)[C@H]2Cn3c(cccc3=O)[C@H]2N1S(C)(=O)=O)c1ccccc1 is entered as 1 | -3 | 4.0
# CN1CCN(C(=O)[C@@H]2[C@@H](CO)[C@@H]3Cn4c(ccc(-c5ccncc5)c4=O)[C@@H]3N2CC2CC2)CC1 is entered as 12 | 8 | 4.0

# Compound activity: PubChem BioAssay, Broad Institute
